Arbovirus anti – antivirals against arbovirus infection; arbovirus infection cell-based antiviral screen; inhibition, % at 10 µM; hit rate 0.37% among 200,000;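 active means inhibition from about 30%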;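 further: bluetongue infection of BSR cells; cell survival read as ATP light after 72 h; 0% = infected wells without compound and 100% = uninfected wells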
Mtb betalactam – beta-lactam sensitization of Mtb H37Rv. AID 434955. inhibition, % at 25 µM. hit rate 0.27% among 330,000. M. tuberculosis H37Rv growth with meropenem, percent inhibition; hits of this screen are not shown here;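 active means about 74% or more and at least 40 points above the plate without the antibiotic, then above 30% in a dose series; inconclusive means first-round hits that could not be retested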;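 further: growth measured after seven days incubation then overnight dye step; 0% = bacteria only wells and 100% = bacteria with antibiotic; twin plates without the antibiotic show which effects depend on it; some results filed as inactive read as strong as hits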
YopH PTP inh – blocks Yersinia enterocolitica YopH tyrosine phosphatase; inhibition, %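 (about 10 µM by stock and volumes)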; AID 898; fluorescence Ex485/Em525; hit rate 0.16% among 140,000;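 active means inhibition of 50% or more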;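 further: controls were vehicle for no effect and minimum signal wells for full effect; inactives centre near -20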
RecA intein inh – blocks M. tuberculosis RecA intein splicing. AID 2221. inhibition, %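 (about 9 µM by stock and volumes)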. hit rate 0.75% among 290,000. cell-free RecA intein splicing, fluorescence; in the data active means inhibition above about 30%; inconclusive means no clear call, values can overlap the other calls;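 further: 0% = vehicle wells and 100% = reference inhibitor control wells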
Target sequence (P9WHJ3 whole entry, looked up): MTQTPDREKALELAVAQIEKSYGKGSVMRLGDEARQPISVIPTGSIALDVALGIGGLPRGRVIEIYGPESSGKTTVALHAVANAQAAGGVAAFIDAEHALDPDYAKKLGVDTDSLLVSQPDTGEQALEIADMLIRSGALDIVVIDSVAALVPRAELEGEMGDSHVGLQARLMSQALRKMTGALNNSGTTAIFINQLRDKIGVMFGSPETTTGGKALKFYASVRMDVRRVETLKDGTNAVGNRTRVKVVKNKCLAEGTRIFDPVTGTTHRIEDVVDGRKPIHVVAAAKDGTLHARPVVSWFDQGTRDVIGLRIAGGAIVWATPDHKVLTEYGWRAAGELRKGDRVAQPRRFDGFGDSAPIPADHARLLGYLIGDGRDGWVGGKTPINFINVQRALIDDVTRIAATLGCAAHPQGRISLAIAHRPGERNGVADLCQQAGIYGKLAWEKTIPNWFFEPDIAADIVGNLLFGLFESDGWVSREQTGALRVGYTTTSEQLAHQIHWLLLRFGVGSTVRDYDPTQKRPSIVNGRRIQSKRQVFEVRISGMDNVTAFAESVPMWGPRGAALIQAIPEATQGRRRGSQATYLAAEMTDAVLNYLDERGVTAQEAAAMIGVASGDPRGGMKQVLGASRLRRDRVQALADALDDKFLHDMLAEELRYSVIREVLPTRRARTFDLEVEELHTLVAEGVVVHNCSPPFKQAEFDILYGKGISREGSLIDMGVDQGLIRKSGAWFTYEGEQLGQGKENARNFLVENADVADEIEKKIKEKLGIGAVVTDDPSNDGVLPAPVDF
Mtb growth – M. tuberculosis H37Rv growth inhibitors, H37Rv strain (AID 1626) | M. tuberculosis H37Rv growth inhibition; higher % means a stronger effect | one-dose inhibition, % at 10 µM; IC50 in µM for titrated hits | hit rate 0.95% among 220,000;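 active means confirmed in a dose series; inconclusive means inhibition above 80% but not taken into the dose series; inactive means below 80% or under 30% at every dose of the series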;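 further: bacteria incubated seven days before Alamar blue readout; 0% = bacteria only wells and 100% = bacteria with antibiotic wells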
Arbovirus anti repeat – recorded beside Arbovirus anti, whose call it bears; inhibition, %; measured here: 10K subset replicate screen; many hits read low in the repeat;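 first of two repeat runs on a subset; 0% = infected and 100% = uninfected wells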
* hit, by the source's call. A portion of the library; the hit share may differ from the screen's.

`O=C(CC1CCCCC1)Nc1ccc(-c2ccc3nncn3n2)cc1` gave Arbovirus anti -17.8, Mtb betalactam -1.9, RecA intein inh -1.3 and Mtb growth 2.8%.
O=C(NC1CCCCC1)C(c1ccccc1)N(Cc1ccc2c(c1)OCO2)C(=O)c1cnsn1 (centres undefined) was read as Arbovirus anti 8.4, Mtb betalactam -6.2, YopH PTP inh -64.7, RecA intein inh -0.2 and Mtb growth -3.3%.
For Cc1cccnc1NC(=O)CSc1nnc(Cc2ccccc2)o1 the results were Arbovirus anti -3.0, Mtb betalactam 0.5, YopH PTP inh -6.3, RecA intein inh -0.4 and Mtb growth 0.7%.
`O=C(N/N=C/c1cccs1)c1ccc2nc[nH]c2c1` gave Arbovirus anti 4.1, Mtb betalactam -1.6, RecA intein inh 1.0 and Mtb growth 3.5%.
`CCc1ccc[n+](-c2[nH]c(=O)sc2/C=N/N=C(\[O-])c2cccnc2)c1` gave Mtb betalactam -8.2 and RecA intein inh 0.7.
Screening COc1cc(C(=O)Sc2ccc(Cl)cc2)cc(OC)c1OC returned Arbovirus anti -38.4, Mtb betalactam 85.3, YopH PTP inh -34.0, RecA intein inh 5.1 and Mtb growth 36.2%.
Screening Cc1cccc(N=C2NC(=O)CS2)c1C returned Arbovirus anti 7.3, Mtb betalactam 0.8, YopH PTP inh 9.3, RecA intein inh 0.0 and Mtb growth 17.6%.
For CS(=O)(=O)c1ccc(Cl)c(NC(=O)Cc2ccccc2F)c1 the results were Arbovirus anti -3.1, Mtb betalactam 3.7, RecA intein inh -2.6 and Mtb growth 0.8%.
For O=C(NCc1ccco1)c1cc(-c2ccncc2)nc2ccccc12 the results were Arbovirus anti 0.7, Mtb betalactam 5.1, YopH PTP inh -39.7, RecA intein inh -0.4 and Mtb growth -3.5%.
C=CCn1c(C)cc(C(=O)COC(=O)/C=C/c2c(C)nn(C3CCS(=O)(=O)C3)c2Cl)c1C (centres undefined) was read as Mtb betalactam 0.9 and RecA intein inh -1.1.
For CN(N=Nc1cccc([N+](=O)[O-])c1)c1ccccc1 the results were Mtb betalactam 34.4 and RecA intein inh 7.1.
For CC(=O)Nc1ccc(/C(C)=N/Nc2nc(N3CCOCC3)nc(N3CCOCC3)n2)cc1 the results were Arbovirus anti 10.5, Mtb betalactam 0.4, RecA intein inh -4.9 and Mtb growth -1.6%.
`Cc1ccc(OCC(=O)NNC(=O)c2cccnc2)cc1` gave Arbovirus anti 5.5, Mtb betalactam -3.6, YopH PTP inh -43.2, RecA intein inh 1.2 and Mtb growth -2.1%.
Screening C#CCOCCOCCOCCNc1nc(N2CCN(C(=O)[C@H](CCC(=O)O)n3cc(C(N)Cc4ccc(O)cc4)nn3)CC2)nc(N2CCN(C(=O)[C@H](Cc3cc4ccccc4[nH]3)n3cc(C(N)[C@H](C)CC)nn3)CC2)n1 (some centres undefined) returned Arbovirus anti -3.9, Mtb betalactam -13.1 and RecA intein inh 0.0.
CCc1ccc(-c2cc3c(=O)n(CC(=O)NCc4ccccc4F)ncn3n2)cc1 was read as Mtb betalactam 0.5 and RecA intein inh -0.9.
CCCCC(c1nnnn1C1CCCC1)N1CCN(C2CCCCC2)CC1 (centres undefined) was read as Arbovirus anti -1.7, Mtb betalactam -18.0, YopH PTP inh -27.5, RecA intein inh 1.7 and Mtb growth 0.5%.
Screening CCC(CCC(=O)Nc1cccc(C(=O)O)c1)C(=O)O (centres undefined) returned Arbovirus anti 8.4, Mtb betalactam 3.7, YopH PTP inh 12.1, RecA intein inh 0.6 and Mtb growth 4.2%.
For O=C(O)CCCC(=O)Nc1ccc(Cl)cc1 the results were Arbovirus anti 16.1, Mtb betalactam -9.7, RecA intein inh -6.5 and Mtb growth 5.0%.
Screening O=C(Nc1cccc2cccnc12)C1CCCC1 returned Arbovirus anti 5.7, Mtb betalactam 5.3, YopH PTP inh -15.0, RecA intein inh -2.4 and Mtb growth -5.9%.
Screening O=C(C[n+]1cc(-c2ccc(F)cc2)n2c1CCC2)Nc1nc(-c2ccc(F)cc2)cs1 returned Arbovirus anti -10.8, Mtb betalactam 87.1, YopH PTP inh -22.1, RecA intein inh 6.0 and Mtb growth 10.5µM*.
`COc1cccc(Cn2cnc3c(NS(=O)(=O)c4ccc(Cl)cc4)c(C)c(C)cc32)c1` gave Arbovirus anti 4.8, Mtb betalactam -4.0, YopH PTP inh -45.1, RecA intein inh 2.9 and Mtb growth -1.8%.
O=C(Nc1ccc(F)cc1)c1cccc(C(=O)Nc2ccc(F)cc2)c1 was read as Mtb betalactam 3.9 and RecA intein inh -0.9.
`COc1ccc(C2=CSC3=NCCN23)cc1` gave Mtb betalactam 0.3 and RecA intein inh -2.0.
For CCC(C(=O)N1CCN(c2cccc(Cl)c2)CC1)c1ccccc1 (centres undefined) the results were Arbovirus anti -6.3, Mtb betalactam 4.8, YopH PTP inh -12.7, RecA intein inh 16.5, Mtb growth -0.6% and Arbovirus anti repeat -17.7.
Screening Cc1nn(-c2ccccc2)c(Cl)c1/C=N/Nc1nncc(=O)[nH]1 returned Mtb betalactam -0.5, RecA intein inh 1.4 and Mtb growth -4.7%.
For C/C(CC(=O)Nc1ccc(C)c(Cl)c1)=N\NC(=O)c1ccncc1 the results were Arbovirus anti -2.2 and Mtb growth inconclusive.
For COc1ccc(CNC(=O)c2c(O)c3ccccc3n(C)c2=O)cc1 the results were Mtb betalactam 5.2 and RecA intein inh -2.9.
Screening Cc1cc(=O)oc2c(C)c(OCC(=O)N3CCC(C(=O)O)(c4ccccc4)CC3)ccc12 returned Mtb betalactam -1.5 and RecA intein inh 7.1.
Screening CCCCCCN(C(=O)CCCCCN1C(=O)NC(c2ccc(-c3ccccc3)cc2)C(C(=O)OCc2ccccc2)=C1C)C(C(=O)NCCCC)c1ccc(OCC(=O)OC)cc1 (centres undefined) returned Arbovirus anti -1.8, Mtb betalactam -5.7, YopH PTP inh -7.1 and RecA intein inh 0.8.
For COc1ccccc1C(=O)N/C(=C/c1ccccc1)C(=O)NC(CCSC)C(=O)O (centres undefined) the results were Arbovirus anti 8.2, Mtb betalactam 10.4, YopH PTP inh -24.0, RecA intein inh 1.1 and Mtb growth -11.1%.
Screening CCOC(=O)C1C(c2ccc(OC)cc2)N(C)OC1(O)C(F)(F)F (centres undefined) returned Arbovirus anti 12.8, Mtb betalactam -1.5, RecA intein inh -0.7 and Mtb growth 8.3%.
For O=C(Nc1cccc(O)c1)c1ccccc1[N+](=O)[O-] the results were Arbovirus anti -0.5, Mtb betalactam -0.7, RecA intein inh -4.0 and Mtb growth 2.2%.
CC12CCC(C(=O)Nc3cccc(NC(=O)C45CCC(C)(C(=O)O4)C5(C)C)n3)(OC1=O)C2(C)C was read as Arbovirus anti -2.6, Mtb betalactam -6.5, YopH PTP inh 1.3, RecA intein inh 1.8 and Mtb growth 4.5%.
`O=C(Nc1ccccc1)O[C@@H]1C[C@H]2CCC(=O)N3CC[C@@H](C1)[C@@H]23` gave Mtb betalactam 0.0 and RecA intein inh 2.7.
`CS(=O)(=O)c1cnc(-c2cccnc2)nc1N` gave Arbovirus anti 0.4, Mtb betalactam -6.8, RecA intein inh 0.7 and Mtb growth -0.7%.
`CN1CCN(C(=O)c2ccc(N(Cc3ccccc3Cl)S(C)(=O)=O)cc2)CC1` gave Arbovirus anti 7.3, Mtb betalactam -3.1, YopH PTP inh -11.7, RecA intein inh -1.8 and Mtb growth -1.7%.

7 records picked at random from the list so far:
Screening Cc1cc(=O)oc2c(C)c(OCC(=O)N3CCC(C(=O)O)(c4ccccc4)CC3)ccc12 returned Mtb betalactam -1.5 and RecA intein inh 7.1.
Screening CCCCCCN(C(=O)CCCCCN1C(=O)NC(c2ccc(-c3ccccc3)cc2)C(C(=O)OCc2ccccc2)=C1C)C(C(=O)NCCCC)c1ccc(OCC(=O)OC)cc1 (centres undefined) returned Arbovirus anti -1.8, Mtb betalactam -5.7, YopH PTP inh -7.1 and RecA intein inh 0.8.
CC12CCC(C(=O)Nc3cccc(NC(=O)C45CCC(C)(C(=O)O4)C5(C)C)n3)(OC1=O)C2(C)C was read as Arbovirus anti -2.6, Mtb betalactam -6.5, YopH PTP inh 1.3, RecA intein inh 1.8 and Mtb growth 4.5%.
For COc1ccc(CNC(=O)c2c(O)c3ccccc3n(C)c2=O)cc1 the results were Mtb betalactam 5.2 and RecA intein inh -2.9.
`CN1CCN(C(=O)c2ccc(N(Cc3ccccc3Cl)S(C)(=O)=O)cc2)CC1` gave Arbovirus anti 7.3, Mtb betalactam -3.1, YopH PTP inh -11.7, RecA intein inh -1.8 and Mtb growth -1.7%.
Screening CCOC(=O)C1C(c2ccc(OC)cc2)N(C)OC1(O)C(F)(F)F (centres undefined) returned Arbovirus anti 12.8, Mtb betalactam -1.5, RecA intein inh -0.7 and Mtb growth 8.3%.
`CS(=O)(=O)c1cnc(-c2cccnc2)nc1N` gave Arbovirus anti 0.4, Mtb betalactam -6.8, RecA intein inh 0.7 and Mtb growth -0.7%.

Carrying on.
Screening CCc1ccccc1OCC(=O)N(CC)CC(=O)NCc1ccc(F)cc1 returned Arbovirus anti 3.2, Mtb betalactam -2.1, YopH PTP inh -12.1, RecA intein inh 7.1 and Mtb growth -2.6%.
For COCC(C)NCc1ccccc1C (centres undefined) the results were Arbovirus anti -2.6, Mtb betalactam 2.6, YopH PTP inh -25.2, RecA intein inh 0.9 and Mtb growth -4.0%.
For O=C1C=C(c2cccs2)C[C@H](c2ccccc2)[C@H]1n1nnc([N+](=O)[O-])n1 the results were Arbovirus anti 25.6, Mtb betalactam 99.8, YopH PTP inh 0.7, RecA intein inh 2.0 and Mtb growth 3.8µM*.
Screening O=S(=O)(c1ccc2nc(N3CCN(c4ccccc4)CC3)ccc2c1)N1CCCCC1 returned Mtb betalactam 4.6 and RecA intein inh -1.2.
`Cc1ccccc1NC(=O)N1CCCC1C(=O)NCc1cccs1` (centres undefined) gave Arbovirus anti 8.4, Mtb betalactam -7.7, YopH PTP inh -25.0, RecA intein inh 0.8 and Mtb growth -9.9%.
For Cc1ccc(NC(=O)C(C)[n+]2ccccc2)cc1[N+](=O)[O-] (centres undefined) the results were Arbovirus anti -0.4, Mtb betalactam 9.0, YopH PTP inh -7.9, RecA intein inh 0.2 and Mtb growth 1.2%.
For COc1ccc(Cn2c(-c3ccco3)nc3c(c(=O)c4ccccc4n3C)c2=O)cc1 the results were Mtb betalactam -2.7, RecA intein inh -3.4 and Mtb growth 3.4%.
Screening COc1ccc(C2CCCN2C(=O)Nc2ccc(F)cc2)cc1OC (centres undefined) returned Arbovirus anti 0.1, Mtb betalactam 4.8, YopH PTP inh -21.8, RecA intein inh 1.3 and Arbovirus anti repeat 4.3.
Screening CN(C)c1ccc(CNC2CC(C)(C)NC(C)(C)C2)cc1 returned Arbovirus anti -9.7, Mtb betalactam -10.4, YopH PTP inh -0.7, RecA intein inh 0.1 and Mtb growth 0.7%.
`N#Cc1c(-c2ccccc2)ccn(Cc2cccc(Cl)c2)c1=O` gave Arbovirus anti 2.9, Mtb betalactam -7.6, YopH PTP inh -3.5, RecA intein inh 1.3 and Mtb growth -6.0%.
Screening O=C1OC(NCc2cccnc2)(c2ccc(Cl)cc2)c2ccccc21 (centres undefined) returned Arbovirus anti 6.0, Mtb betalactam -11.2, RecA intein inh -4.8 and Mtb growth 0.9%.
Screening O=C(NCc1cccnc1)c1ccc(COc2ccc(Cl)cc2)cc1 returned Arbovirus anti 4.2, Mtb betalactam 78.2, RecA intein inh 2.6 and Mtb growth 9.4%.
Screening O=C(Cn1cc2c(n1)CCCC2)NCCCN1CCN(C2CCCCC2)CC1 returned Arbovirus anti 2.3, Mtb betalactam -4.7, YopH PTP inh 0.7, RecA intein inh 0.0, Mtb growth -6.5% and Arbovirus anti repeat 4.2.
For O=S(=O)(c1ccccc1)N1CCN(c2nc(-c3cccs3)nc3ccccc23)CC1 the results were Arbovirus anti -0.8, Mtb betalactam 3.6, YopH PTP inh -24.1, RecA intein inh -0.8 and Mtb growth -4.7%.
`CC(=O)Oc1cc2cccc(OC(C)=O)c(=O)c2c(OC(C)=O)c1OC(C)=O` gave Arbovirus anti -4.6, Mtb betalactam -0.2, RecA intein inh -3.8, Mtb growth 3.2% and Arbovirus anti repeat -8.1.
CCCn1c(C)cc(/C=C(\C#N)C(=O)O)c1C was read as Arbovirus anti -4.6, Mtb betalactam 3.3, YopH PTP inh -32.1, RecA intein inh -1.1 and Mtb growth -1.3%.
`Cc1ccc2cccc(OCc3ccccc3)c2n1` gave Mtb betalactam -3.0 and RecA intein inh -2.1.
For COc1cc(S(=O)(=O)Nc2c(C)cc(C)cc2C)ccc1Cl the results were Arbovirus anti 0.3, Mtb betalactam -14.1, YopH PTP inh 1.9, RecA intein inh -0.6 and Mtb growth -2.1%.
O=C(O)CSc1ncnc2scc(-c3ccc(Br)cc3)c12 was read as Mtb betalactam -0.2, RecA intein inh 0.6 and Mtb growth 4.3%.
COc1cccc(-c2ccc(NC(=O)C3CCCN(CCCn4nc(C)cc4C)C3)cc2)c1 (centres undefined) was read as Mtb betalactam 90.6 and RecA intein inh 0.9.
